Sa helicase inh = blocks Staphylococcus aureus DNA helicase; purified S. aureus helicase, fluorescence unwinding assay; about half of the hits fall short of the stated cut; inhibition, %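 (tested at about 80 µM)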; hit rate 0.05% among 120,000;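 active = both duplicates at 50% or more, or one of them with a favoured structure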;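 also: 0% = mean of negative control wells and 100% = mean of positive control wells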
MgrA DNA FP = S. aureus MgrA-DNA binding modulation; fluorescence polarization; AID 602314; inhibition, %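 (about 10 µg/mL by stock and volumes)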; hit rate 0.13% among 84,000;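 active = above 50% in either of two replicates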;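 also: 0% = protein plus DNA without compound and 100% = DNA alone without protein; higher means less MgrA bound to DNA so lower polarization; one replicate is shown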
* marks the source's active call; other numbers are inactive results; . = no result given.

Each structure is followed by: Sa helicase inh	MgrA DNA FP
> COc1cc([N+](=O)[O-])c(OC)cc1SCc1n[nH]c(=S)n1-c1cccc(Cl)c1
→ .	0.7
> CC1CCN(S(=O)(=O)c2ccc3ncn(CC(=O)Nc4cnc5ccccc5c4)c(=O)c3c2)CC1
→ -1.0	.
> Nc1ccc(C(=O)N/N=C/c2cccn2-c2ccc(S(N)(=O)=O)cc2)cc1
→ 12.0	.
> COc1ccc(CN(Cc2cccnc2)C(=S)NCc2ccco2)cc1OC
→ 9.0	0.7
> COc1cc2nc(=S)n3c(c2cc1OC)NC(CCC(=O)NCCN1CCN(c2cccc(Cl)c2)CC1)C3=O (configuration not stated)
→ -23.0	.
> CCn1nnc2cc(C(=O)NC3CCCc4ccccc43)ccc21 (configuration not stated)
→ -4.0	.
> COC(=O)c1nnc(-c2ccccc2)c(-c2ccccc2)n1
→ 3.0	.
> O=C1NC(=O)C2(COC(c3cccnc3)OC2)S1 (configuration not stated)
→ 26.0	.
> CC1CC(CC(C)C(=O)NC(=S)Nc2nncs2)C(=O)O1 (configuration not stated)
→ 3.0	0.7
> CN1C(=O)/C(=C\C2(C)N3CC4(C)CN2CC(C)(C3)C4=O)c2ccccc21 (configuration not stated)
→ -1.0	-0.1
> O=C(O)C1C(C(=O)O)C1C(=O)O (configuration not stated)
→ 7.0	-2.3
> CN(C(=O)/C=C/c1ccc(Br)o1)c1ccccc1
→ -15.0	-0.2
> O=C(c1cc2cc(Cl)ccc2o1)c1ccccc1Cl
→ .	-2.2
> CCn1c(O)c(/C=N/c2nc3ccccc3[nH]2)sc1=S
→ -84.0	.
> CCOc1ccc(NCCC(=O)c2ccc(NS(C)(=O)=O)cc2)cc1
→ 3.0	-0.1
> CCOc1ccc(NC(=O)CCc2ccc(OC)cc2)cc1
→ 3.0	0.2
> COCCn1nnnc1C(c1cc2c(C)ccc(C)c2[nH]c1=O)N1CCCc2ccccc21 (configuration not stated)
→ -18.0	0.4
> COc1cccc(C2c3c(oc4ccccc4c3=O)C(=O)N2CCO)c1 (configuration not stated)
→ -1.0	.
> CC1(C)Cc2cccc(OCCNS(=O)(=O)c3ccc(-n4cnnn4)cc3)c2O1
→ -19.0	.
> CC(C)NC(=S)N=Nc1c(O)n(C)c2ccccc12
→ 9.0	.

The closing six records of the section before come first, to join the parts:
Each structure is followed by: Sa helicase inh	MgrA DNA FP
> CCOc1ccc(NCCC(=O)c2ccc(NS(C)(=O)=O)cc2)cc1
→ 3.0	-0.1
> CCOc1ccc(NC(=O)CCc2ccc(OC)cc2)cc1
→ 3.0	0.2
> COCCn1nnnc1C(c1cc2c(C)ccc(C)c2[nH]c1=O)N1CCCc2ccccc21 (configuration not stated)
→ -18.0	0.4
> COc1cccc(C2c3c(oc4ccccc4c3=O)C(=O)N2CCO)c1 (configuration not stated)
→ -1.0	.
> CC1(C)Cc2cccc(OCCNS(=O)(=O)c3ccc(-n4cnnn4)cc3)c2O1
→ -19.0	.
> CC(C)NC(=S)N=Nc1c(O)n(C)c2ccccc12
→ 9.0	.
> Cc1nn(-c2ccccc2)c2sc(C(=O)NC(C)C)cc12
→ -18.0	-3.2
> Fc1ccc(CN2CCCCCC2)cc1F
→ -8.0	2.1
> CCc1cccc(C)c1NC(=S)NCCC(=O)O
→ .	-3.0
> O=C(CSC1=NCCS1)NCc1ccco1
→ 2.0	1.9
> COc1ccc(S(=O)(=O)NCCn2ccc3ccccc32)cc1
→ -14.0	.
> COc1ccc(Nc2cc(C(=O)N3CCc4ccccc4C3)c3ccccc3n2)c(OC)c1
→ 5.0	0.7
> CC(C)CC1(C)NC(=O)N(CC(=O)c2ccc(N(C)S(C)(=O)=O)cc2)C1=O (configuration not stated)
→ 6.0	.
> COc1ccc(Br)cc1S(=O)(=O)n1ccnc1
→ -8.0	.
> CC(=O)Nc1ccc(C2N=C(c3cnccn3)NN2)cc1 (configuration not stated)
→ -19.0	.
> S=c1oc(-c2ccccc2)nn1CN1CCCCC1
→ 3.0	-0.8
> Cc1ccc(/C=N/NC(=O)C(c2ccccc2)c2ccccc2)o1
→ 9.0	.
> CCn1c(=O)c2c(=O)cc(N)[nH]c2n(Cc2ccccc2)c1=O
→ 12.0	.
> CCN(CC)c1nc(NN)nc(Nc2ccc(C)c(Cl)c2)n1
→ 7.0	0.9
> Nc1cccc(OCc2ccc(F)cc2)c1
→ 3.0	-0.2
> CC1C(O)=C(c2ccc(F)cc2)C(=N)N1c1ccccc1 (configuration not stated)
→ 11.0	.
> Cc1ccc(NC(=O)c2cccn(OCc3ccccc3)c2=O)cc1C
→ -22.0	.
> O=C(NCCc1ccccc1)N1c2ccccc2Sc2ccccc21
→ 7.0	1.2
> CC[n+]1c(/C=C/N(C)c2ccccc2)sc2ccc(OC)cc21
→ 0.0	0.6
> Cc1ccc2c(CC(=O)N(C)Cc3nc4ccccc4c(=O)[nH]3)coc2c1
→ -19.0	.
> COc1ccc2nc(-c3ccc(N)cc3)[nH]c2c1
→ 7.0	1.4
> Cc1ccc(-c2cc(C(F)F)nc(NCC3CCCO3)n2)cc1 (configuration not stated)
→ 1.0	.
> COC(=O)c1ccc(NC(C)=O)c(NC(C)=O)c1
→ .	-0.1
> CCOC(=O)C(CC)SC1=NS(=O)(=O)c2cc(Cl)ccc2N1 (configuration not stated)
→ 16.0	.
> O=S(c1ccc2ccccc2c1)N(Cc1ccc(F)cc1)Cc1ccco1 (configuration not stated)
→ 0.0	2.5
> Cc1ccc2c(c1)c(C)c(C)n2CC(O)Cn1nnc2ccccc21 (configuration not stated)
→ 13.0	.
> NCCc1c(C(=O)O)[nH]c2ccccc12
→ 10.0	.
> CCCC(=O)N1c2ccccc2NC2=C(C(=O)CCC2)C1c1ccc(O)c(OC)c1 (configuration not stated)
→ -17.0	.
> CC1CCC2(CC1)NC(=O)N(Nc1ccc(S(=O)(=O)N3CCCC3)cn1)C2=O (configuration not stated)
→ 5.0	.
> NC(=O)c1c(C(F)(F)F)cccc1C(F)(F)F
→ .	0.6
> CCOC(=O)c1cnc2c(Cl)c(Cl)ccc2c1NCCOC(=O)C(C)C
→ 7.0	-1.4
> COC(=O)c1[nH]c(C(=O)OC)c(O)c1O
→ .	1.1
> CN(c1ccccc1)S(=O)(=O)c1ccc(I)cc1
→ 0.0	-0.6
> COC(=O)c1ccc(N=C2SC(C(=O)Nc3ccc(C(=O)O)cc3)CC(=O)N2C)cc1 (configuration not stated)
→ .	-1.8
> c1ccc(-c2cnc(CSc3ncnc4sccc34)o2)cc1
→ 3.0	.
> Cc1cccc2nc(Cn3ccccc3=O)cn12
→ 5.0	-2.5
> Cc1noc(C)c1S(=O)(=O)NC1CCCc2ccccc21 (configuration not stated)
→ .	0.0
> Cc1ccc(NC(=O)CC(O)(C(F)(F)F)C(F)(F)F)cc1
→ -6.0	0.3
> CNC(=O)COC(=O)c1cccnc1Cl
→ 15.0	1.1
> CCCCN(C(=S)NC1CCCCC1)c1c(N)n(CCC)c(=O)[nH]c1=O
→ 6.0	.
> Cc1ccc2c(cnn2C(=O)CCCC(=O)NC2CCCc3ccccc32)c1 (configuration not stated)
→ 8.0	0.2

Single values from the list:
MgrA DNA FP, O=C(O)C1C(C(=O)O)C1C(=O)O (configuration not stated) is entered as -2.3
MgrA DNA FP, COC(=O)c1[nH]c(C(=O)OC)c(O)c1O is entered as 1.1

Next part.
Each structure is followed by: Sa helicase inh	MgrA DNA FP
> C=CCn1c(C(Cc2ccccc2)NC(=O)c2ccccc2)nc2ccccc21 (configuration not stated)
→ 2.0	1.4
> COc1ccccc1C1CCN(C(=O)Nc2ccccc2C#N)CC1
→ -4.0	.
> COc1ccccc1N(C(=O)c1ccccc1O)C(C)C1CC1 (configuration not stated)
→ -10.0	.
> CC1C(O)CC(c2ccccc2)NC1c1ccccc1 (configuration not stated)
→ .	-1.8
> CC(C)CNC(=O)C1CCN(c2ccc(S(=O)(=O)N3CCOCC3)cc2)CC1
→ -1.0	-0.6
> c1ccc(-c2cc(N3CCCC3)nc3cc4c(cc23)OCCO4)cc1
→ 5.0	.
> CCC1CN(C(=O)NCc2ccccc2)c2ccccc2S1 (configuration not stated)
→ 15.0	.
> CC1(C)CC(=O)C(C(C2=C(O)CC(C)(C)CC2=O)c2ccccc2)C(=O)C1 (configuration not stated)
→ -16.0	3.4
> CCOC(=O)c1c(-c2ccco2)csc1NC(=O)COC(=O)Cn1[nH]c(=O)c2ccccc2c1=O
→ -8.0	.
> CC(=O)O[C@H]1C[C@@H]2CC[C@@H]3[C@H](CC[C@@]4(C)[C@H]3C[C@H]([N+]3(C)CCCCC3)[C@@H]4OC(C)=O)[C@@]2(C)C[C@@H]1[N+]1(C)CCCCC1
→ .	2.5
> CSc1sc(C(=O)Oc2ccccc2)c2c1C(=O)CC(C)(C)C2
→ .	-2.2
> O=C(c1ccc2c(c1)OCCO2)N(c1ccccn1)C1CCCCC1
→ 6.0	.
> CC(C)c1ccc(C(=O)OCC(=O)NCc2ccc(Cl)cc2)cc1
→ 2.0	-3.0
> CCOc1ccccc1C(=O)N(CN1CCCC1=O)c1ccccc1
→ 0.0	.
> CCc1ccc(NC(=O)C2c3ccccc3C(=O)N(CCOC)C2c2c[nH]c3ccccc23)cc1 (configuration not stated)
→ 4.0	-0.1
> Cc1cc(NC(=O)c2ccc(CN3CCN(Cc4ccccn4)CC3)cc2)ccc1Cl
→ -5.0	.
> COc1cc(OC)cc(C(=O)NCC(=O)OCC2COc3ccccc3O2)c1 (configuration not stated)
→ 6.0	.
> FC(F)(F)c1cc(-c2ccc(Cl)cc2)nc2ccnn12
→ .	-2.0
> O=C(OC1Cn2c(=O)ccc(=O)n2C1)c1ccccc1Cl
→ 3.0	.
> CC(c1ccccc1)N1CCC(CNC(=O)Nc2ccc(Cl)cc2)C1 (configuration not stated)
→ 6.0	0.3
> COc1cc(S(=O)(=O)N2CCNCC2)ccc1-n1cnnn1
→ -19.0	.
> CCC(SC1=NCCS1)C(=O)Nc1ccccc1OC (configuration not stated)
→ 18.0	-2.8
> Cc1[nH]n(-c2ccccc2)c(=O)c1Cc1c(Cl)cccc1Cl
→ .	-0.1
> Cc1ccc(Sc2c(CS(=O)(=O)c3ccccc3)[nH]c3ccccc23)cc1
→ -10.0	1.0
> CC1=NC(=O)/C(=C\c2ccc(Cl)cc2)N(C)N1c1ccccc1
→ -15.0	.
> CC(C)NS(=O)(=O)c1ccccc1I
→ .	2.4
> CCOC(=O)C1=C(C)N(C2CCCCC2)C(=O)C1
→ 2.0	1.7
> O=C(NCc1ccc2[nH]c3c(c2c1)CCCC3)C1CC1
→ 13.0	.
> Cc1nc(C(F)(F)F)ccc1C(=O)Nc1ccccc1F
→ .	1.1
> Cc1cc(/C=C2/NC(=O)N(Cc3ccc(Br)cc3)C2=O)c(C)n1-c1ccc2c(c1)OCO2
→ -5.0	0.0
> O=C(CSc1n[nH]c(=O)[nH]c1=O)Nc1ccc(SC(F)F)cc1
→ 0.0	.
> S=c1[nH]nc(C2CC2)o1
→ 8.0	.
> CC(c1ccccc1)n1nnc2ccccc21 (configuration not stated)
→ -7.0	-0.9
> CCC(C)NC(=O)C1c2ccccc2C(=O)N1C(C)CCc1ccccc1 (configuration not stated)
→ 1.0	.
> COc1ccccc1N1CCN(c2nc3ccccc3n3c(C)nnc23)CC1
→ 9.0	.
> CC(=O)c1nnn(-c2cc(Cl)ccc2Cl)c1C
→ .	-2.2
> CNC(=O)CS(=O)(=O)c1cn(CC(=O)N2CCCC2)c2ccccc12
→ 0.0	0.4
> CCCc1nc2cc(C)c(C)cc2nc1C
→ .	-1.2
> Cc1ccc(-c2csc(-c3ccno3)n2)c(C)c1
→ .	-1.8
> CC1(C)C2CC=C(COCC(O)CNC3CC3)C1C2 (configuration not stated)
→ 2.0	.
> CCCc1cc2c(cc1NC(=O)C(C)(C)C(=O)Nc1cc3c(cc1CCC)OCO3)OCO2
→ 16.0	-6.9
> CCn1c(Cn2ncc(Cl)c(Cl)c2=O)nc2cc(S(=O)(=O)N(C)C)ccc21
→ -8.0	.
> Cc1sc2ncnc(NCC(C)(C)N3CCOCC3)c2c1C
→ -10.0	.
> COc1ccccc1NC(=O)C1=C(C)Nc2ccccc2S1
→ 15.0	2.8
> CCCN(CCC)C(=O)c1cc(-c2ccccc2)n[nH]1
→ -31.0	.
> O=C(CN1CCOCC1)C12CC3CC(CC(C3)C1)C2
→ -35.0	.
> CCOC(=O)N1CCC(N(CCN(C)C)C(=S)Nc2ccc(OC)c(Cl)c2)CC1
→ 7.0	.
> Cc1cc(C)nc(NC(N)=NC2CCCCC2)n1
→ 6.0	1.5
> Cc1nc(Cc2nnc(SCC(=O)c3ccc4c(c3)NC(=O)CO4)o2)cs1
→ 5.0	.
> CC1C(=O)CCN(C(C)(C)C)C1C (configuration not stated)
→ 8.0	-5.3
> Cn1c(Cc2ccccc2)nnc1SCN1C(=O)c2ccccc2C1=O
→ 19.0	.
> CC(=O)Nc1nc(-c2cccc3ccccc23)cs1
→ -9.0	.
> COC(=O)C1(C)Cc2c([nH]c3ccccc23)C(c2ccccc2)N1 (configuration not stated)
→ .	-2.8
> CCOC(=O)CSc1nc(N)c2c(C)c(C)sc2n1
→ 0.0	.
> O=C(NCc1ccco1)/C(=C/c1cn(-c2ccccc2)nc1-c1cccs1)NC(=O)c1ccccc1
→ -5.0	-0.7
> CCOC(=O)Cc1nnc(-c2ccc(Cl)cc2)o1
→ -17.0	.
> Cc1cccc(COc2coc(CN3CCc4ccccc4C3)cc2=O)c1
→ 6.0	.
> FC(F)(F)c1cc(Cl)c(N/N=C/c2cccs2)c(Cl)c1
→ .	1.0
> CCC(Sc1nnc(CSc2ncccn2)n1-c1ccc(Cl)cc1)C(=O)OC (configuration not stated)
→ -22.0	.
> CC(C)(C)c1cn2c3ccccc3nc2n1CCCO
→ 2.0	-3.2
> COc1ccc(OC)c(C2C(C(=O)OC(C)C)=C(C)NC3=C2C(=O)CC(c2ccc(Cl)cc2)C3)c1 (configuration not stated)
→ .	1.9
> O=C(O)c1cccc2cccc(I)c12
→ .	-2.7

Full records from above. Order of screens: Sa helicase inh, MgrA DNA FP
`CC(C)CNC(=O)C1CCN(c2ccc(S(=O)(=O)N3CCOCC3)cc2)CC1` is listed as -1.0, -0.6
`O=C(O)C1C(C(=O)O)C1C(=O)O` (configuration not stated) is listed as 7.0, -2.3

High-throughput results from PubChem BioAssay.

The list is partial (hit frequency here may not be typical).
